# PINK1 expr mod = A Quantitative High throughput Screen to Identify Chemical Modulators of PINK1 Expression; Potency, µM (highest dose often 76.6 µM), inactives show at the top dose activation (PINK1 increase), most hits filed as activators; AID 624263, 2012; PINK1 immunofluorescence, high-content cytometry, 24 h; 0.2% of 410,000 active; active = well fitted activation curve with a large enough effect; inconclusive = small, poorly fitted or top-dose-only effect; inactive = flat fitted curve, though single readings scatter; cell line not stated here;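 note: potency is the fitted concentration of half-maximal effect; % of control where 0% means no effect; nearly all actives have a fitted effect of over 65% in size; a mitochondrial uncoupler was the plate control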
#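 PINK1 protein level read as immunofluorescence by microplate cytometer in a fixed, stained stable cell line after 24 h exposure to five compound concentrations, with CCCP as control.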
# Six1-Eya2 blk = qHTS Assay for Inhibitors of the Six1/Eya2 Interaction; Homeobox protein SIX1 (Homo sapiens) + Protein phosphatase EYA2 (Homo sapiens), …; 0.56% of 360,000 active; activity change, % (test concentration not listed); AlphaScreen GST-Six1/His-Eya2 binding, biochemical; hits give low values; control for the full effect not named in the record; in the data active = activity change below about -65%; inconclusive = about -30% to -65%; inactive = above about -30%; note: % is set by controls: 0 for no effect and ±100 for the full control effect; compound concentration not given in the record
#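 Compounds are tested against tagged Six1 and Eya2 proteins bridged by glutathione donor and nickel acceptor beads; after a one-hour incubation at 37 °C without light, AlphaScreen emission is recorded.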
# D2 PAM = Beta-Arrestin HTS for Positive Allosteric Modulators of the Human D2 Dopamine Receptor: Potentiators. D(2) dopamine receptor (Homo sapiens), P14416. DiscoveRx D2 beta-arrestin cells, luminescence, 90 min; 100% = 57 uM dopamine signal. potentiation, % (no concentration beside the values). 0.23% of 360,000 active; active = potentiation of 50% or more; inconclusive = 30% to 50%; inactive = 30% or less;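 note: compound concentration not given in the record; tested on top of an EC20 dose of dopamine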
# Target sequence (P14416 whole entry, looked up): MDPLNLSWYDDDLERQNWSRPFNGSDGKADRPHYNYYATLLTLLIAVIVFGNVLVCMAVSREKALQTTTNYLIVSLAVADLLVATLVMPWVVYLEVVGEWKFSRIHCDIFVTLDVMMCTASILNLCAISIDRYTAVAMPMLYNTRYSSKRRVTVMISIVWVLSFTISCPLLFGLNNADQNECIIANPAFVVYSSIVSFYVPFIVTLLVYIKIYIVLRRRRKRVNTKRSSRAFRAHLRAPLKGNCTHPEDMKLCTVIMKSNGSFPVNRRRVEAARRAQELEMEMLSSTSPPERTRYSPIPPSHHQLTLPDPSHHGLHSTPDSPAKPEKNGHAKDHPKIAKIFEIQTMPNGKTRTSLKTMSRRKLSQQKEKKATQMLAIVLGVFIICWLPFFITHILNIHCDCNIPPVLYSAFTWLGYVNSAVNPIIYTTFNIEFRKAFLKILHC
#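 D2 cells co-treated with compound plus 50 nM dopamine (EC20) for 90 min at 37 deg C to detect potentiation. Beta-arrestin recruitment was read as enzyme-fragment luminescence after 1 h at ambient temperature. Full response was set by 57 uM dopamine.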
# TRPML1 ag = qHTS for Agonists of the Human Mucolipin Transient Receptor Potential 1 (TRPML1). Mucolipin-1 (Homo sapiens), Q9GZU1. TRPML1-expressing cells, Ca2+ dye fluorescence, FDSS; host cell line not named in the record; reference of the full effect not given here. activation, % (no concentration beside the values). 0.12% of 410,000 active; in the data active = activation above about 50%; inconclusive = about 30% to 50%; inactive = below about 30%; note: 0% is about no effect; the text of the record puts the active cut at 80%
# Target sequence (Q9GZU1 whole entry, looked up): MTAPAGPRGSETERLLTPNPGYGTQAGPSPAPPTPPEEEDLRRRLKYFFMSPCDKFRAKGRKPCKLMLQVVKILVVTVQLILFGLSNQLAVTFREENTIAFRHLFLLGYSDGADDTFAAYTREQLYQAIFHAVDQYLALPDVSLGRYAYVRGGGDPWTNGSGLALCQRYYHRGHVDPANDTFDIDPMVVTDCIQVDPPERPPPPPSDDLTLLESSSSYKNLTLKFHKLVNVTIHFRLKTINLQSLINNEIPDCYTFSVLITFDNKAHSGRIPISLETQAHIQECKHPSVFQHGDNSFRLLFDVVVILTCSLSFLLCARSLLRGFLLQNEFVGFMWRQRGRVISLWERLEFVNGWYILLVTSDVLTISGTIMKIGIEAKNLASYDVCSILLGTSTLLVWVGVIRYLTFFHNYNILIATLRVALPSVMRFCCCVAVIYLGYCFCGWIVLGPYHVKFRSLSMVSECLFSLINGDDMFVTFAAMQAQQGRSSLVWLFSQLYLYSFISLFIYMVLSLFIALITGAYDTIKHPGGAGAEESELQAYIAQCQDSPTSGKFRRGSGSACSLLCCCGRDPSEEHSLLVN
#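 Tetracycline-induced TRPML1-DL cells are seeded and incubated overnight before loading with a no-wash Ca2+ dye and quencher. Agonist activity is taken from the 110 s fluorescence read following compound pin-transfer on an FDSS, before EC80 54-4 challenge.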
# TRPML1 blocker = qHTS for Inhibitors of the Human Mucolipin Transient Receptor Potential 1 (TRPML1); Mucolipin-1 (Homo sapiens), Q9GZU1; TRPML1-inducible cells, Ca2+ dye fluorescence, FDSS; hits give low values; inhibition of EC80 agonist-evoked calcium signal; activity change, negative = inhibition, % (no concentration beside the values); 0.02% of 390,000 active; AID 624415, 2012; in the data active means activity change below about -50%; inconclusive means about -30% to -50%; inactive means above about -30%;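 note: stimulus is agonist 54-4 at its EC80 concentration; % is set by controls: 0 for no effect and ±100 for the full control effect; compound concentration not given in the record; the text of the record puts the active cut at -80%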
#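 Calcium fluorescence in TRPML1-DL cells induced overnight with Tet: a 110 s read after compound pin addition, then a 110 s antagonist read after challenge with 54-4 at 4 uM final (EC80).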
# D2 agonist = Beta-Arrestin HTS for Positive Allosteric Modulators of the Human D2 Dopamine Receptor: Agonists; DiscoveRx PathHunter D2 beta-arrestin, luminescence, 90 min; 100% = 57 uM dopamine signal; activation, % (no concentration beside the values); 0.084% of 360,000 active; AID 624465, 2012; in the data active = activation above about 40%; inconclusive = about 15% to 40%; inactive = below about 15%; note: compound concentration not given in the record; the text of the record calls up to 30% inactive
#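 DiscoveRx PathHunter D2 beta-arrestin cells (2,100/well) attached overnight, then compound-stimulated 90 min at 37 C in HBSS/10 mM HEPES/0.1% Tween-20 buffer; beta-galactosidase complementation read by luminescence after 1 h at ambient temperature. Dopamine 57 uM final (EC100) as control.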
# Starred values were filed as active, the others as inactive; ? = inconclusive; . = not tested or not shown; [ ] = dose if it differs, or a comment.
SMILES,PINK1 expr mod,Six1-Eya2 blk,D2 PAM,TRPML1 ag,TRPML1 blocker,D2 agonist
Cc1ccc(C(=O)NCC(=O)OCC(=O)N2CC(C)OC(C)C2)cc1 (configuration not stated),-2.5%,8,-14,0.1,-2,-0.4
Cc1ccc(NC(=O)c2cc(S(=O)(=O)N(C)C)ccc2N2CCCC2)cc1F,-2.7%,-6,-8,1.6,6,-4.5
O=C(CCCSc1nc2ccccc2s1)NC1=NCCS1,-1.7%,0,-2,0.1,-4,-0.4
Cc1cccc(NC(=O)/C(=C/c2cccc([N+](=O)[O-])c2)NC(=O)c2cccs2)c1,16%,-18,-6,0.4,13,1.5
Cc1ccc(C)c(C(=O)c2c(N)c(-c3nc(-c4ccc5c(c4)OCO5)cs3)c3ccccn23)c1,0.9%,.,.,0.4,6,.
Cc1cc(C(=O)COC(=O)c2ccc(O)cc2O)c(C)n1-c1ccccc1,25%,?,22,2.9,-6,5.1
CCCCn1c(N)c(N(C)C(=O)c2cc3c(s2)CCCCC3)c(=O)[nH]c1=O,0.7%,6,-11,0.3,18,-3.9
COc1cc(C(=O)OC(C)C(=O)NCC2CCCCC2)cc(NC(=O)c2ccco2)c1OC (configuration not stated),0.6%,2,-22,-0.4,9,-3.9
N#CCCN(C1CCCCC1)S(=O)(=O)CCOc1ccccc1,1.2%,1,-8,-1.5,7,-1.8
COc1ccc(NC(=O)N(C)C[C@H]2Oc3ccc(NC(=O)CCC(F)(F)F)cc3C(=O)N([C@H](C)CO)C[C@@H]2C)cc1,0.8%,-1,-5,0.4,-17,-5.9
COC(=O)c1ccc([C@@H]2Nc3c(cccc3C(F)(F)F)[C@@H]3C=CC[C@@H]32)cc1,2.2%,.,.,0.1,6,.
Cc1ccc(-c2nc(CSCC(=O)NC3CCN(Cc4ccccc4)CC3)c(C)o2)cc1,-1.8%,-11,-37,0.5,20,-3.7
CCn1ncc(CN2CCCC(C(=O)Nc3cccc(-c4cc5ccccc5[nH]4)c3)C2)c1C (configuration not stated),0.5%,-16,-16,1.2,15,-0.1
CC(C)CN1C(=O)C(=O)N(CC(=O)N2CCN(c3ccccc3)CC2)C1=O,0.8%,0,14,0.0,0,-3.7
CC(=O)Cc1nsc(NC(=O)c2oc(-c3ccccc3Cl)cc2C)n1,0.5%,1,-6,.,.,-17
O=C(C[C@@H]1C/C=C\C[C@H](NC(=O)OCC2c3ccccc3-c3ccccc32)C(=O)OC[C@H]2CCCN2C1=O)N[C@H](CO)Cc1ccccc1,3.2%,-3,-5,-1.0,-4,-3.1
Cc1noc(C)c1COC(=O)c1cc(F)c(F)cc1Cl,-2.0%,9,0,4.4,15,-1.9
COCCSc1ccccc1C(=O)NCCc1ccccc1,-2.0%,8,-10,0.2,14,-0.2
CCC1=C(NCc2ccccc2)COC1=O,-0.4%,4,-8,-0.2,11,0.5
CC(C)(C)C(=O)OCOC(=O)[C@@H]1N2C(=O)[C@@H](N=CN3CCCCCC3)[C@H]2SC1(C)C,1.7%,1,-11,0.2,3,-4.8
C=CCNC(=O)c1onc(CSc2ccc(F)cc2)c1C(=O)NCC=C,-0.1%,8,-44,1.4,-1,1.0
O=C1CCc2cc(S(=O)(=O)N3CCC(C(=O)NC4CCCCCCC4)CC3)ccc2N1,5.0%,2,-8,0.1,19,-5.2
CCOC(=O)C=C1CCN(c2ncc(C(F)(F)F)cc2Cl)CC1,4.9%[38.3 µM],11,-8,-0.5,3,-0.2
O=C(NCc1ccccc1)C1Cc2c(-c3cccc(F)c3)ccnc2O1 (configuration not stated),5.7%,-5,-7,-0.7,.,4.8
COc1ccccc1OCCCOc1ccc(/C=C2\SC(=O)NC2=O)cc1OC,2.1%,2,-1,-0.4,12,1.6

# (listing goes on)
SMILES,PINK1 expr mod,Six1-Eya2 blk,D2 PAM,TRPML1 ag,TRPML1 blocker,D2 agonist
CC(=O)C1CCC2C3CCC4=CC(=O)C=CC4(C)C3CCC12C (configuration not stated),-1.2%,-1,-2,0.3,2,-5.4
O=C(Nc1ccc2c(c1)OCO2)c1csc([C@@H]2C[C@H](O)[C@@H](CO)O2)n1,-0.9%,8,-6,-0.6,.,2.7
CCN(CC)c1ccc(C(=O)N/N=C(\C)c2ccc(O)cc2)cc1,0.1%,2,4,2.1,-10,-1.7
O=Cc1ccc(OC(=O)C2CC(=O)N(c3ccc(F)cc3)C2)cc1 (configuration not stated),49%[38.3 µM],0,-4,-0.7,4,-3.6
CCCOc1ccccc1Cn1c(=O)oc2ccc(C)cc21,1.8%,28,-11,1.1,8,-3.7
O=C(O)c1cccc2cccnc12,-0.4%,-5,-20,-1.0,-1,-3.2
N#CCSc1nnc(-c2c[nH]c3ccccc23)o1,0.1%,?,11,-0.3,19,0.4
O=C(c1ccc(-c2ccc(Cl)cc2Cl)o1)N1CCOCC1,0.5%,-2,-16,-0.3,21,0.1
Cc1ccc(S(=O)(=O)N2CCN(CC(=O)Nc3ccnn3C3CCCC3)CC2)cc1,4.6%,-21,-8,-1.5,7,-3.4
COc1cccc(C(=O)N2c3cc(C)ccc3OCC2C(C)(C)C)c1 (configuration not stated),28%,2,0,1.1,3,-1.9
Cc1ccc(/C=N/n2c(C)nnc2C)s1,2.5%,7,4,-0.3,-9,-1.6
Cc1cccc(C(=O)OC2CCCN(C)C2)c1C (configuration not stated),0.5%,-3,-10,-0.4,-3,0.5
COc1ccc(OC)c(NC(=O)CN2C(=O)NC(C)(c3ccc4c(c3)OCCO4)C2=O)c1 (configuration not stated),0.1%,-1,-1,-0.6,0,-1.6
COc1ccc(C2C=C(C34CC5CC(CC(C5)C3)C4)NC(=S)N2)cc1OC (configuration not stated),2.0%,?,-5,2.1,20,0.5
c1cnc2c(-c3ccc4nccn4c3)cccc2c1,4.5%,-8,-2,-0.4,.,-0.2
CCOc1ccc(-c2cn3c(n2)sc2cc(C(=O)NCCCc4ccccc4)ccc23)cc1,1.5%,.,.,-0.9,-5,.
Nc1nc(SCC(=O)Nc2cc(Cl)c(Cl)cc2Cl)n[nH]1,-1.3%,-7,3,0.3,31,-1.3
Cc1cc(C(F)(F)F)n2nc(-c3cnn(C)c3C(F)(F)F)c(Cl)c2n1,-3.8%[38.3 µM],0,-9,0.2,-9,-2.9
O=C(C[n+]1ccc(C(=O)NCc2ccccc2)cc1)c1ccc(F)cc1,0.4%,18,.,0.1,.,.
O=C(CSc1nc2ccccc2[nH]1)Nc1c(F)cccc1F,-0.9%,-4,-3,-0.1,-9,-1.4
CCN(CC(=O)Nc1c(F)cccc1F)C(=O)c1ccc(Cl)c(S(=O)(=O)N2CCCCC2)c1,-0.2%,-5,-15,-0.5,10,-3.2
COc1cc2cc(CCCOC(=O)c3cc(OC)c(OC)c(OC)c3)oc(=O)c2cc1OC,3.0%,-8,-15,-0.2,19,-1.7
COc1cc(NC(=O)c2c(Cl)cnn2C)c(OC)cc1Cl,2.9%,12,1,0.5,2,-0.6
CSc1ccc(C2c3[nH]c4ccccc4c3CCN2C(=O)c2ccnn2C)cc1 (configuration not stated),-1.0%,0,-10,-0.3,-12,5.1
O=C(O)CC(SCC(=O)Nc1ccc(Cl)c(S(=O)(=O)N2CCOCC2)c1)C(=O)O (configuration not stated),0.7%,4,-4,0.5,1,-5.1

# An excerpt from above in order of number of heavy atoms, highest first.
SMILES,PINK1 expr mod,Six1-Eya2 blk,D2 PAM,TRPML1 ag,TRPML1 blocker,D2 agonist
COc1ccc(OC)c(NC(=O)CN2C(=O)NC(C)(c3ccc4c(c3)OCCO4)C2=O)c1 (configuration not stated),0.1%,-1,-1,-0.6,0,-1.6
O=C(C[n+]1ccc(C(=O)NCc2ccccc2)cc1)c1ccc(F)cc1,0.4%,18,.,0.1,.,.
CC(=O)C1CCC2C3CCC4=CC(=O)C=CC4(C)C3CCC12C (configuration not stated),-1.2%,-1,-2,0.3,2,-5.4
O=C(c1ccc(-c2ccc(Cl)cc2Cl)o1)N1CCOCC1,0.5%,-2,-16,-0.3,21,0.1

# Going on with the list.
SMILES,PINK1 expr mod,Six1-Eya2 blk,D2 PAM,TRPML1 ag,TRPML1 blocker,D2 agonist
COc1ccc(OC)c(NC(=S)NN2CCOCC2)c1,-1.5%,6,-11,-0.5,4,-0.5
CCOc1cccc2sc(N(CCCN(C)C)C(=O)Cc3ccccc3)nc12,-0.3%,2,-18,.,.,-5.0
O=C1C=C(NCc2ccccc2)c2ccccc2C1=O,-1.6%,?,-11,-1.1,7,?
COc1cc(CN(C(=O)c2ccc(C)cc2)c2ccccn2)cc(OC)c1OC,5.4%,.,.,-1.0,-4,.
CC(=O)NS(=O)(=O)c1ccc(N=c2ssc3c2-c2ccc(C)cc2NC3(C)C)cc1,-1.5%,22,-33,0.5,15,-7.5
CCCCNC(=O)CCn1nc(-c2ccc(Cl)cc2)ccc1=O,1.6%,3,0,1.9,-7,-3.5
Cc1cc(C)c2nc(SCC(=O)N3CCCCC3)c(C#N)cc2c1,2.9%,1,8,-0.7,25,-2.8
CC(=O)NS(=O)(=O)c1cccnc1Nc1ccc(Cl)cc1,-0.9%,5,3,-0.3,0,-1.7
Cn1c(=O)n(C)c2cc(NS(=O)(=O)c3ccccc3)c(NCc3ccccc3)cc21,0.5%,.,.,2.6,-5,.
CCOc1cc(/C=C2\CCC/C(=C\c3cc(Cl)c(O)c(OCC)c3)C2=O)cc(Cl)c1O,2.8%,3,-50,6.5,23,-12
Cc1ccc(C2C(C#N)=C(N)OC3=C2C(=O)CC(C)(C)C3)s1 (configuration not stated),1.3%,8,-6,1.0,-4,-1.1
CC(C)(CN=C1NS(=O)(=O)c2ccccc21)CNC(=O)c1ccccc1,3.0%,3,-10,0.7,6,3.9
COc1ccc(NS(=O)(=O)c2cccc(C(=O)NCC(c3ccco3)N3CCCC3)c2)cc1 (configuration not stated),-0.1%,-4,-32,0.5,-1,-3.3
COc1ccc(CCNc2ncnc3onc(-c4ccc(Cl)cc4)c23)c(OC)c1,7.0%,.,.,3.7,62,.
O=C(CNC(=O)c1cc2c(n(-c3ccccc3)c1=O)CCCC2=O)c1ccccc1,-3.0%,5,16,0.4,-24,0.1
CCCCN(CCCC)CCNC(=O)c1cn(CC)c2ccc(S(=O)(=O)N3CCCC3)cc2c1=O,-1.2%,0,-7,0.2,1,2.6
O=C(Cn1nc(-c2ccccc2)oc1=O)OCC(=O)c1ccc(F)c(F)c1,3.5%,6,3,1.5,-9,-3.6
Cc1ccc(CN2CCN(/N=C/c3ccc(C)s3)CC2)c(C)c1,?,?,-31,0.2,2,-0.8

# An excerpt from further up, as a working copy:
SMILES,PINK1 expr mod,Six1-Eya2 blk,D2 PAM,TRPML1 ag,TRPML1 blocker,D2 agonist
O=C(Cn1nc(-c2ccccc2)oc1=O)OCC(=O)c1ccc(F)c(F)c1,3.5%,6,3,1.5,-9,-3.6
Cc1ccc(CN2CCN(/N=C/c3ccc(C)s3)CC2)c(C)c1,?,?,-31,0.2,2,-0.8

# Assay outcomes from PubChem BioAssay.
